From PubChem
BJeLR lethal: kills HRASV12-expressing BJeLR cells. actives 0.17% (n = 300,000). inhibition, % (concentration not given with the values). BJeLR (HRASV12) viability, CellTiter-Glo ATP luminescence, 48 h; reference of the scale not given here;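 active means replicate mean above 50%; inconclusive means above 50% but judged a plate artefact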;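 further: 50 nL library stock added to about 25 µL; numbers are from one replicate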
Mtb hypoxia rep: inhibitors of hypoxia-regulated fluorescent reporter in Mycobacterium tuberculosis. fluorescence inhibition, % (no concentration beside the values). M. tuberculosis hypoxia-regulated fluorescent reporter, fluorescence. actives 0.1% (n = 300,000). AID 1159583;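 active means 35 to 45% if threefold the growth effect, above 45% if 1.5-fold the growth effect; inactive means the rest, general growth blockers included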;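 further: wells of about 50 µL received 100 nL stock; 0% = vehicle wells and 100% = reference inhibitor wells; whole bacteria with a GFP reporter of the hypoxia response; strong numbers were not always called active; many hits fall short of the cut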
Bead autofluor: flagged as autofluorescent in microsphere protease counterscreen | actives 3.1% (n = 360,000) | fluorescence intensity (no concentration beside the values) | compound autofluorescence counterscreen, microsphere flow cytometry; stronger effect = higher value | AID 624483;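 active means at least 3 SD above the mean of all compounds, about 16000 in these data; inconclusive means too few beads counted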;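 further: 100 nL of 1 mM stock went into each well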
PrP UTR inh: inhibition of PrP 5' UTR reporter expression; cell-based PrP 5' UTR mRNA reporter, plate reader; inhibition, % (concentration not given with the values); actives 0.35% (n = 340,000);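 active means every replicate at 50% or more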;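 further: 0 = median of the neutral control wells; tested in H4 reporter cells; numbers are from one replicate; inactives centre near -14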
ugtP null kill: compounds lethal to S. aureus RN4220 ugtP deletion mutant. OD600 growth, 16 h; some inactives read as strong as hits. AID 1259309. growth inhibition, % (concentration not given with the values). actives 0.54% (n = 330,000);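 active means z-score under -3 and OD600 up to 0.15 on both plates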;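 further: plate controls were untreated wells for no effect and antibiotic for full effect; wells of about 80 µL received 100 nL stock; the first replicate is given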
Sa RN4220 lethal: kills Staphylococcus aureus RN4220; inhibition, % (concentration not given with the values); actives 0.33% (n = 330,000); S. aureus RN4220 growth, OD600, 16 h;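 active means z-score of -3 or lower and OD600 up to 0.18 on both plates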;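 further: plate controls were untreated cells for no effect and reference antibiotic for full effect; stock transfer was 100 nL into about 80 µL; one replicate is shown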
Mtb hypoxia rep growth: further read-out of Mtb hypoxia rep, marked with its call; growth inhibition, %; measured here: M. tuberculosis growth (absorbance);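 0% = vehicle and 100% = reference antibiotic; read after six days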
* marks the source's active call; other numbers are inactive results; u = inconclusive; x = no result given; & = joins results of further samples. Compounds as they come. About 3.9% of those tested had a hit in this group.

Each structure is followed by: BJeLR lethal	Mtb hypoxia rep	Mtb hypoxia rep growth	Bead autofluor	PrP UTR inh	ugtP null kill	Sa RN4220 lethal
Cc1ccc(NC(=O)CN(c2ccccc2)S(=O)(=O)N(C)C)cc1C
→ x	x	x	2765	7	-4	5.7
CC(OC(=O)CN1C(=O)C2CC=CCC2C1=O)C(=O)Nc1ccc(F)cc1Cl (stereo unspecified)
→ 5	5	-1	4278	-11	7	3.4
O=c1onc(-c2c(F)cccc2F)n1-c1ccccc1Cl
→ -6	4	7	4210	-2	4	6.7
Cn1c(COc2ccc3ccccc3c2)nnc1SCC(=O)OC1CCCCC1
→ -7	2	-7	2275	-13	-17	-1.7
CC(C)(C)C1CCC2(CC1)NC(CO)(CO)CO2 (stereo unspecified)
→ 4	9	4	3455	-22	5	3.5
O=C(CCNC(=O)c1ccccc1)NCc1ccccc1F
→ x	5	3	4123	-9	0	2.6
COc1ccc(-c2noc(CCC(=O)NCCN3CCN(c4ccccc4F)CC3)n2)cc1
→ 3	x	x	2302	-18	2	2.1
COc1cccc(NC(=O)NC2CCN(CC(=O)Nc3ccccc3[N+](=O)[O-])CC2)c1
→ -4	6	2	2996	-12	-3	-1.3
CSc1nc(C)cc(C)c1S(=O)(=O)c1ccccc1C
→ 8	x	x	4999	-32	1	4.6
COC(=O)c1nn(-c2cccc(C)c2)c2nnc(Cc3ccc(C)cc3)c(=O)n12
→ 3	0	-3	7950	-18	6	5.5
c1ccc(-n2ncc3cccnc32)cc1
→ 5	6	8	5817	-33	0	4.5
O=C(O)c1ccc(NS(=O)(=O)c2ccc3c(c2)C2C=CCC2C(c2ccccc2F)N3)cc1 (stereo unspecified)
→ x	8	-4	3986	-11	10	23
Cc1ccc(S(=O)(=O)N2CCN(C(=O)Cn3c(=O)cnc4ccccc43)CC2)c(C)c1
→ x	5	4	5656	-4	-10	-1.2
CCOC(=O)c1c(NC(N)=O)sc(C)c1C
→ -3	1	10	15705	-12	0	3.0
COc1cc(C=NNC(=O)c2cnccn2)ccc1O
→ x	-5	10	x	x	0	-3.9
Cc1nnc2ccc(N3CCN(C(=O)c4ccccc4)CC3)nn12
→ 6	4	-3	4980	-13	10	6.5
O=C(NC1CCCCC1)Nn1c(-c2ccccc2)nc2ccccc2c1=O
→ 1	-7	-13	2549	-8	1	-1.6
Cc1noc(C)c1CSc1nc2ccccc2s1
→ -4	x	x	5154	-20	14	2.5
CCn1c(SCC(=O)NCCc2ccccc2)nnc1-c1ccco1
→ 11	8	11	3171	-12	-3	-11
COc1cc(CC(=O)NC2CCCc3ccccc32)cc(OC)c1OC (stereo unspecified)
→ 0	8	6	3694	-22	0	-1.3
CCc1ccccc1N(CC)C(=O)CCc1nc(-c2ccc(C)cc2)no1
→ 3	x	x	5059	-9	6	0.9
CN1CCN(C(=O)/C=C/c2ccc(Cl)c(Cl)c2)CC1
→ -5	9	7	5527	-11	1	1.6
CN1CCN(S(=O)(=O)c2ccc(N3CCN(S(=O)(=O)/C=C/c4ccccc4)CC3)nc2)CC1
→ -7	9	7	3838	-24	0	2.0
O=C(Nc1nnc(SCC(=O)N2CCCc3ccccc32)s1)c1cccc2ccccc12
→ -1	14	5	2577	-3	-9	6.9
CCc1ccccc1Nc1nc(N)nc(CSCC(=O)c2cc(C)n(C)c2C)n1
→ -3	x	x	3980	-5	2	1.0
CCOC(=O)Cc1csc(NC(=O)c2ccc(S(=O)(=O)N3CCOCC3)cc2)n1
→ 10	20	15	4360	-13	5	6.4
COc1ccc2c(c1)c(C(O)CN1CCN(Cc3ccc4c(c3)OCO4)CC1)c(C)n2C (stereo unspecified)
→ -9	1	3	3647	-2	-9	-18
c1cnc(NCCNc2ncccn2)nc1
→ 3	-5	7	10709	4	-1	0.3
COC(=O)c1cccc(NC(=O)c2cc3sccc3n2C)c1
→ 4	1	-2	8059	-25	8	11
CCN(CC(=O)NCc1cccs1)C(=O)c1ccc(OC)c(OC)c1
→ -6	-1	6	6290	-21	0	-1.4
OCC[C@@H]1C[C@@H](O)[C@H](O)[C@]2(CCc3ccccc3CO2)O1
→ -4	x	x	2917	-21	x	x
CCOC(=O)c1cc2occc2n1CC(=O)NC1CCC(C)CC1 (stereo unspecified)
→ 2	15	6	6052	-28	2	2.5
CCCc1noc2c1C(=NO)CC(CC(C)SCC)C2 (stereo unspecified)
→ x	22	6	x	x	31	7.1
Cn1c(SCc2ccccc2)nc(N)c(N=O)c1=O
→ 4	15	12	5963	x	95*	-3.6
CCn1c(SCC(=O)NNC(=O)c2ccc(C)cc2)nnc1-c1ccco1
→ -6	3	2	4788	-15	5	3.4
COC(=O)C1=C(C(=O)OC)[C@@H]2Nc3ccccc3[C@@]23C[C@@H](C(=O)OC)N(C(=O)C2CCC2)C3=N1
→ -5	x	x	3626	-4	x	x
S=C(NCCc1ccncc1)Nc1cccc2ccccc12
→ -3	8	9	4937	-30	6	4.2
O=C(Nc1ccccc1-c1nc2ccccc2[nH]1)c1ccc(N2C(=O)CCC2=O)cc1
→ 6	-2	3	6590	-13	-3	2.8
CC1CCN(S(=O)(=O)c2ccc(NC(=O)CN3CCOCC3)cc2)CC1
→ 4	11	10	10306	-17	-7	12
O=C(CN1CCCCCC1)N/N=C/c1cccc(Cl)c1
→ -8	x	x	2161	-3	x	x
CC(=O)Nc1ccc(-n2nnnc2SCC(=O)N2CCN(C(=O)c3ccco3)CC2)cc1
→ 2	-2	6	6746	-11	3	3.1
C=C[C@@]1(C)CC(=O)[C@]2(O)[C@@]3(C)C(O)CCC(C)(C)C3C(O)C(OC(C)=O)[C@@]2(C)O1 (stereo partly specified)
→ x	-7	3	x	x	2	3.7
O=c1c2ccccc2nc(CN2CCOCC2)n1-c1ccccc1F
→ -5	9	5	9734	-28	-2	5.9
COC(=O)c1ccc(N2CCN(C(C)=O)CC2)c(NC(=O)c2cccnc2)c1
→ -7	0	-3	4013	-1	1	-4.1
Cc1nn(CC(=O)Nc2ccc3c(c2)nc(CN2CCCC2)n3C)c(=O)c2ccccc12
→ 0	16	2	8340	-22	3	5.9
COC(=O)C1CCCN1C(=O)C12CC3CC(CC(C3)C1)C2 (stereo unspecified)
→ 4	16	3	u	-2	2	2.9
O=C(CSC1CC(=O)N(CC(c2ccccc2)c2ccccc2)C1=O)Nc1ccc(Cl)cc1 (stereo unspecified)
→ -2	9	9	9769	-1	-6	1.6
CCCc1cc(C(=O)N(C2CCCCC2)C2CCCCC2)no1
→ 1	7	12	5441	0	3	-4.4
CC(=O)c1ccc(NC(=O)C(C)N2CCN(C/C=C/c3ccccc3)CC2)cc1 (stereo unspecified)
→ -6	12	14	3879	-14	10	-1.6
O=C(NCCc1ccc(Cl)cc1)c1cccnc1
→ -13	9	9	8944	-35	3	0.7
CC(C)(C)OC(=O)NN1CC(=O)N2[C@@H](Cc3c([nH]c4ccccc34)C2(C)C)C1=O
→ 3	1	10	3648	-10	7	1.6
Cc1cc(OCCN2CCC(Cc3ccccc3)CC2)ccc1[N+](=O)[O-]
→ 27	4	18	3714	1	-5	2.2
O=C(NCc1ccco1)c1cccs1
→ -9	x	x	2704	-14	-7	0.1
CCC1CCCCN1C(=O)C(=O)c1cn(CC(=O)N(CC)CC)c2ccccc12 (stereo unspecified)
→ -1	12	-2	5168	-12	7	0.8
O=C(O)CC/C(=N\Nc1ccc(Cl)cc1)c1cccs1
→ -12	x	x	3992	-7	x	x
Cc1ccc(S(=O)(=O)Oc2ccccc2)cc1
→ x	7	2	4226	-12	7	9.9
O=C(CSCc1ccc(Br)cc1)Nc1ccc(S(=O)(=O)N2CCCCCC2)cc1
→ -8	4	9	10653	-19	-27	5.4
C[C@]12CCC(=O)C=C1CCC1C2C(O)C[C@@]2(C)C1CC[C@]2(O)C(=O)COC(=O)CCC(=O)O (stereo partly specified)
→ x	7&0	3&10	x	x	6&0	8.7&5.4
C[C@@]12C(=O)N(Cc3ccccc3)CC(=O)N1C1c3cc(Cl)ccc3OCC1C2c1ccccc1 (stereo partly specified)
→ x	15	4	x	x	8	-1.3
O=C(Nc1ccc(Cl)cn1)C1CCN(S(=O)(=O)c2cccs2)CC1
→ 18	-5	-8	4116	1	8	2.0

New compounds follow.
Each structure is followed by: BJeLR lethal	Mtb hypoxia rep	Mtb hypoxia rep growth	Bead autofluor	PrP UTR inh	ugtP null kill	Sa RN4220 lethal
Cc1nc(C(=O)NNC(=O)c2ccccc2Cl)c(C(F)(F)F)o1
→ -3	-11	-4	3914	-38	5	1.6
Cc1cc(C)nc(SCc2ccc(C(=O)N/N=C/c3ccccc3C(=O)O)cc2)n1
→ -1	x	x	4425	-12	x	x
Cc1cc(NC(=O)c2cc(CC(C)C)on2)n(-c2ccccc2)n1
→ -2	2	3	6795	-5	0	0.4
COc1ccc(CC(=O)Nc2cccc(-c3nnc(-c4ccc(C)cc4)o3)c2)cc1OC
→ 12	17	4	6379	0	4	3.9
CC(C)CNC(=O)CN1C(=O)NC2(CCCc3ccccc32)C1=O (stereo unspecified)
→ -9	-8	-7	5317	-4	5	6.4
CCOC(=O)c1c(C)[nH]c(C(=O)CN2CCOCC2)c1C
→ -14	-1	1	23350*	-50	3	-0.7
CC(C)CN1CCN=C1N(C)C
→ x	16	11	3416	-33	2	8.2
FC(F)(F)C(Oc1nc(NC2CCCCC2)nc(N2CCOCC2)n1)C(F)(F)F
→ 7	20	-1	3203	2	55	27
COc1ccc(-n2c(=C(C#N)C(=O)NCCN3CCOCC3)sc(=Cc3cccs3)c2=O)cc1
→ x	7	7	x	x	6	0.2
O=C1C2C3C=CC(C3)C2C(=O)N1Cc1ccccc1 (stereo unspecified)
→ -18	4	8	7832	-9	-2	2.4
Oc1ccc(Br)cc1C=NNc1ncc(-c2ccccc2)cn1
→ x	-4	4	x	x	3	16
O=C(Cn1nc(-c2ccco2)ccc1=O)Nc1cc(Cl)ccc1Cl
→ -3	8	1	4503	9	8	3.2
CC(C)(C)C(=O)Nc1nnc(SCC(=O)Nc2ccc3c(c2)OCO3)s1
→ -13	1	-4	2372	52	3	7.0
CCOC(=O)c1[nH]c2ccc(C)cc2c1N=C(C)N(C)C
→ -1	-5	0	2368	-17	8	6.7
N#Cc1c(N)n(CCNC(=O)c2ccccc2)c2nc3ccccc3nc12
→ 3	2	6	2255	-7	-7	4.1
CCN(CC(=O)Nc1ccc(NC(C)=O)cc1)C(=O)Cc1ccc(S(=O)(=O)N2CCOCC2)s1
→ 1	7	10	u	-18	5	3.9
COc1ccc(NC(=O)CSc2nc(N)c(C(=O)Nc3ccc(N(C)C)cc3)s2)cc1
→ 3	x	x	2524	-92	-15	3.7
C=CCSc1nc(N)c(C#N)c(-c2ccc(C)cc2)c1C#N
→ -7	x	x	4379	-12	16	5.6
COc1cc(OC)cc(C(=O)NCC(=O)OCC(=O)C(C)(C)C)c1
→ 2	1	7	2507	-12	-1	1.1
Cc1cc(C)cc(OCC(=O)OCC(=O)N2CCc3ccccc32)c1
→ 5	-2	-3	7148	-28	7	-1.2
COc1cc(/C=C2/C(=O)N(c3ccc(C(=O)O)cc3)N=C2C)cc(OC)c1O
→ 8	-4	0	3695	-49	3	1.1
Cc1nn(Cc2ccccc2)c(C)c1/C=N/NC(=O)CNc1cccc(C(F)(F)F)c1
→ 0	x	x	1984	-29	x	x
Cc1ccc(CNC(=O)C2CCCN(c3nn4c(=O)cc(C)nc4s3)C2)cc1 (stereo unspecified)
→ -1	5	-1	4496	14	-2	1.1
CCOc1ccc(CCNC(=O)c2nnn(CC(=O)Nc3ccc(OC)cc3)c2N)cc1OCC
→ 5	8	2	6949	-5	1	4.1
CCCN1CCC(N(CCc2ccccc2)Cc2ccccc2)CC1
→ -3	5	1	4201	-7	3	5.4
COc1cc(C(=O)Oc2cccnc2)cc(OC)c1OC
→ 4	9	2	3374	-40	4	1.5

Record cards (already shown). Values in the order: BJeLR lethal, Mtb hypoxia rep, Mtb hypoxia rep growth, Bead autofluor, PrP UTR inh, ugtP null kill, Sa RN4220 lethal
Results for Cc1ccc(CNC(=O)C2CCCN(c3nn4c(=O)cc(C)nc4s3)C2)cc1 (stereo unspecified) = -1, 5, -1, 4496, 14, -2, 1.1
Results for COc1ccc(-n2c(=C(C#N)C(=O)NCCN3CCOCC3)sc(=Cc3cccs3)c2=O)cc1 = x, 7, 7, x, x, 6, 0.2
